Screening data as filed in PubChem BioAssay.
ClpP mod: qHTS Assay for Activators of ClpP; purified B. subtilis ClpP, FRET peptide cleavage, 20 min; Potency, µM (highest dose often 57.5 µM), without a hit: top-dose activity change, negative = active; 340,000 tested, 1.9% active; AID 651965, 2013; active = well fitted falling curve with a large enough effect; inconclusive = small, poorly fitted or top-dose-only effect; inactive = no such curve, though single readings can be large or run the other way; further: potency means the concentration at half of the fitted maximal effect; the source files actives as falling curves though it sought activators and does not explain the sign; nearly all actives have a fitted effect of over 65% in size; many hits overshoot -100%
Target sequence (P80244 whole entry, looked up): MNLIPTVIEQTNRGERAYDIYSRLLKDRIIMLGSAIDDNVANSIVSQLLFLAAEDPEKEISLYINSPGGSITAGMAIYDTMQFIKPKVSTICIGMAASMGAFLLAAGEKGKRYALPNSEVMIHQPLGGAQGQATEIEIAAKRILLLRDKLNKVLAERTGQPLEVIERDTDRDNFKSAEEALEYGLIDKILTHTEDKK
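Buffer: 100 mM Tris/HCl pH8, 100 mM KCl, 0.05% low protease BSA, 2.5% glycerol, 0.01% Tween-20. ClpP 10 microg/mL final; 20 min RT; delta FRET normalized to ADEP and DMSO controls.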
TRPML1 blocker: inhibitors of human TRPML1 channel | 390,000 tested, 0.02% active | AID 624415 | activity change, negative = inhibition, % (concentration not given with the values) | TRPML1-inducible cells, Ca2+ dye fluorescence, FDSS; stronger effect = lower value; inhibition of EC80 agonist-evoked calcium signal; in the data active means activity change below about -50%; inconclusive means about -30% to -50%; inactive means above about -30%;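 further: stimulus is agonist 54-4 at its EC80 concentration; on the % scale 0 is the no-effect control and ±100 the full control effect; compound concentration not given in the record; the text of the record puts the active cut at -80%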
Target sequence (Q9GZU1 whole entry, looked up): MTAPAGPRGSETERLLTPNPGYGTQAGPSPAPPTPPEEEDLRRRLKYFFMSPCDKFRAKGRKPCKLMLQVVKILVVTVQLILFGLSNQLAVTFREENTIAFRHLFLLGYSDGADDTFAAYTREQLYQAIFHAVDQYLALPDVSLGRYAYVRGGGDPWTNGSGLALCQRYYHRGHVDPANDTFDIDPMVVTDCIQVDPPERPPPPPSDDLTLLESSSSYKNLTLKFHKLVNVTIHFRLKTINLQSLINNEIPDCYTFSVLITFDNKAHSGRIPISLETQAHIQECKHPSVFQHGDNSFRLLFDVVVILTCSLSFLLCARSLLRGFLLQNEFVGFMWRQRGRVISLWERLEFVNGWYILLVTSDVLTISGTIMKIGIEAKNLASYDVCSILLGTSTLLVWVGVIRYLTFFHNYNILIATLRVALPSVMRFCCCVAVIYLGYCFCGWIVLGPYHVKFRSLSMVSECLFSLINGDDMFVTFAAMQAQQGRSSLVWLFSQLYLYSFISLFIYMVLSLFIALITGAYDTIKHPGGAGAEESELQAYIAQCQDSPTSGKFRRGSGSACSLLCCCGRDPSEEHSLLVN
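TRPML1-DL cells, Tet-induced overnight (~16 h, 37 °C) at 1,500 cells/well, were loaded with Ca8 no-wash dye plus quencher for 45-90 min at room temperature. Compounds were pinned during FDSS kinetic reading; agonist 54-4 at EC80 (4 uM final) then added.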
gsp antagonist: antagonists of gsp mutant (McCune-Albright syndrome); gsp-mutant cells, cAMP HTRF, 30 min; control for the full effect not named in the record; Potency, µM (doses to about 76.9 µM), for inactives: top-dose activity change, negative = inhibition, usual class: inhibitors; 340,000 tested, 0.4% active; AID 624288; active = falling curve of any shape with a large fitted effect; inconclusive = falling curve, mostly with a smaller effect; inactive = flat or rising curve; cell line not stated here;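 further: intracellular cAMP measured with PDE inhibitor Ro 20-1724 present during compound exposure; potency means the concentration at half of the fitted maximal effect; on the % scale 0 is the no-effect control and ±100 the full control effect; nearly all actives have a fitted effect of over 65% in size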
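HTRF cAMP measurement after 30 min RT detection following 30 min, 37C compound treatment alongside […] (added as 300 uM solution) in G418-selected cells seeded at 2000/well and grown 16–24 h.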
Sfp inh: inhibitors of Bacillus subtilis Sfp phosphopantetheinyl transferase; Q9F4F7; Biochemical Sfp PPTase activity, qHTS; Potency, µM, for the others: max response, negative = inhibition, hits mostly inhibitors; 310,000 tested, 3.5% active; active means well fitted inhibition curve with a large enough effect; inconclusive means small, poorly fitted or top-dose-only effect, or another doubt; inactive means no such curve, though single readings can be large or run the other way;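 further: the enzyme is Sfp with the accession as filed and its product quenches rhodamine fluorescence; potency means the concentration at half of the fitted maximal effect; 0% = enzyme reaction without inhibitor and -100% = no enzyme wells; top concentration of the series not given in the record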
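After 15 min at room temperature with compound, 15 nM Sfp received 5 uM rhodamine-CoA plus 12.5 uM BHQ-2-ybbR (50 mM Hepes pH 7.6, 10 mM MgCl2). Rate came from the fluorescence difference over 30 min, ex 525/em 598 nm.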
gsp ag: gsp mutant agonism; Potency, µM (top dose mostly 76.9 µM), for the others: at the highest dose activation (cAMP increase), most hits filed as activators; AID 624287; 340,000 tested, 0.13% active; gsp mutant cells, cAMP HTRF, 30 min; control for the full effect not named in the record; active = well fitted activation curve with a large enough effect; inconclusive = small, poorly fitted or top-dose-only effect, or another doubt; inactive = no such curve, though single readings can be large or run the other way; cell line not stated here;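 further: phosphodiesterase inhibitor Ro 20-1724 added with compounds to block cAMP breakdown; potency means the concentration at half of the fitted maximal effect; nearly all actives have a fitted effect of over 60% in size; about a fifth of the inactives were tested at one dose only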
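Cells in DMEM/10% FBS with G418 were pretreated with compounds in DMSO plus […] (300 uM stock) for 30 min at 37C. cAMP was measured by HTRF (cAMP-d2 plus anti-cAMP antibody-K) after 30 min at room temperature.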
TRPV1 PAM: enhances activation of the human vanilloid receptor TRPV1 | Q8NER1 | TRPV1-expressing cells, Fluo-8 calcium influx, capsaicin EC20 potentiation; host cell line not named in the record; control for the full effect not named in the record | potentiation, % at 8.33 µM | 320,000 tested, 0.02% active; active means potentiation above 80%; inconclusive means 30% to 80%; inactive means below 30%; further: 0% is about no effect
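Fluo-8 calcium influx in TRPV1-expressing cells, kinetic read (ex 480/em 520 nm). Compound added and read 3 min for agonist activity, followed by capsaicin at EC20 final and 2 min further read for enhancement.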
Menin MLL FP FL: inhibitors of human menin-MLL interaction, wild-type MLL peptide; Fluorescence polarization, fluorescein-MLL peptide displacement from menin; 290,000 tested, under 10 active; FP activity change, % at 61.4 µM; inconclusive = falling polarisation curve, or a change in total fluorescence; inactive = total fluorescence flat and polarisation flat or rising; no compound was filed as active; the % refers to the polarisation; negative = inhibition;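 further: % of control where 0% means no effect; inhibitors lower the polarisation; unlabelled MLL peptide was the positive control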
Numbers without * were called inactive; u = inconclusive; x = no result given; [ ] = another dose, or the depositor's remark. Compounds were not picked by outcome; overall some 4.9% were active at least once.

SMILES | ClpP mod | TRPML1 blocker | gsp antagonist | Sfp inh | gsp ag | TRPV1 PAM | Menin MLL FP FL
CCOC(=O)N1CCC(Nc2c(-c3ccc(C)c(C)c3)c(=O)c2=O)CC1 | 1.1% | 27 | -25% | 7% | -7% | -12 | 2.6
O=C(NCCn1cccn1)C1CCC(=O)N(CC2CCCCC2)C1 (centres undefined) | -1.2% | 40 | 15% | 12% | -3% | 4 | x
O=c1/c(=C/c2cn(-c3ccccc3)nc2-c2ccc(F)cc2)sc2nc3ccccc3n12 | x | x | x | 3% | x | 2 | -1.2
CCC(C)NC(=O)CN1C(=O)NC2(CCc3ccccc3C2)C1=O (centres undefined) | x | 7 | 3% | 17% | 1%[15.4 µM] | 21 | 0.4
CCOc1c(C)cnc2c1c(=O)n(CC(=O)NCC1CCCO1)c(=O)n2C (centres undefined) | u | 6 | 6% | x | 23% | -3 | x
CC(=O)c1cccc(N=Nc2c(C)[nH]c3ccccc23)c1 | -3.2% | 9 | 5% | -3% | -30%[inhibitor] | 25 | x
CCOc1ccc(N=C(NC#N)SCC(=O)NC2CC2)cc1 | -2.1% | 6 | 0% | 7% | 4% | 0 | 4.2
Nc1nc(Nc2cccc(Cl)c2)nc(NCCO)c1[N+](=O)[O-] | x | 7 | 10% | 1% | u | 15 | 7.5
CCn1c(=O)cc(OCC(=O)NCc2cccs2)c2ccccc21 | x | 7 | -4% | 13% | 10%[15.4 µM] | 11 | -0.1
O=c1c2ccccc2[nH]c(=S)n1CCN1CCc2ccccc2C1 | x | 5 | -11% | 18% | 16%[15.4 µM] | -12 | 4.2
COc1ccc(N2C(=O)Cc3ccccc3C2=O)cc1 | -4.9% | 12 | 5% | 7% | -7%[15.4 µM] | -6 | 6.2
CC(=O)Nc1sc(N/N=C/c2ccc(C)cc2)nc1-c1ccc(C)cc1 | 0.4% | -10 | -16% | 3% | 30% | 1 | 7.3
O=C(NC1CCN(S(=O)(=O)c2cccc(F)c2)CC1)c1ccc(F)cc1 | 0.6% | 20 | 14% | 14% | -6% | 2 | -5.4
CCCN1CCN(CCCNC(=O)Cn2cc3c(n2)CCCC3)CC1 | -0.7% | 27 | 5% | 18% | -20% | 27 | 0.4
CCN1CCn2c3c(c4cc(Br)ccc42)CCCC31 (centres undefined) | -4.7% | 24 | 2% | x | 3% | x | x
O=C(NCc1nnc(SCC(=O)N2CCOCC2)o1)c1c(F)cccc1Cl | x | 1 | 4% | 11% | -1%[15.4 µM] | 10 | 1.7
CC(C)Oc1ccc(C(=O)NC(C)(C)CO)cc1 | -2.1% | -4 | 16% | -1% | -39%[inhibitor] | 2 | -4.5
COc1ccc(-n2c(SC(C)C(=O)Nc3ccc(NC(C)=O)cc3)nc3ccccc3c2=O)cc1OC (centres undefined) | x | -7 | u | -4% | 23% | -23 | -2.3
COCCn1c(SC(C)C(=O)Nc2ncc(Cl)cc2Cl)nc2ccccc21 (centres undefined) | u | 4 | -1% | 6% | u | 4 | 1.3
CCn1c(=O)c2ccccc2n2c(SCC(=O)NCc3cccs3)nnc12 | -8.5% | -1 | -1% | 14% | 9% | 2 | 1.0
CCOC(=O)c1nn(-c2ccc([N+](=O)[O-])cc2)cc1O | 0.8% | 6 | -1% | 5% | 8% | -5 | -1.4
COC(=O)c1sc(NC(=S)NC(=O)c2ccc(F)cc2)nc1C | x | x | x | 4% | x | -5 | 6.1
Cc1[nH]c2ccccc2c1[C@H]1[C@@H](CC#N)C1(C)C | -17% | -12 | -27% | u | 0% | -8 | 0.2
CNC(=S)NN=C(C)c1ccc(OC)cc1O | 2.4% | 3 | -5% | x | 3% | x | x
CC(C)C(c1nnnn1C1CCCC1)N1CCc2ccccc21 (centres undefined) | -0.3% | 0 | -10% | 7% | -37%[inhibitor] | -11 | -1.5
SMILES | ClpP mod | TRPML1 blocker | gsp antagonist | Sfp inh | gsp ag | TRPV1 PAM | Menin MLL FP FL
O=[N+]([O-])c1ccc(Oc2ccc(Oc3ccc(C(F)(F)F)cn3)cc2)nc1 | -0.2% | -16 | -3% | 4% | 9% | -11 | -3.2
Cc1ccc(NCC(=O)N2CCN(S(=O)(=O)c3ccccc3)CC2)cc1F | 0.4% | -1 | -4% | x | -45%[inhibitor] | -17 | x
N#Cc1cc2c(nc1SCC(=O)N1CCCCC1)CCCCC2 | -3.1% | 5 | -21% | 56µM* | 14% | -20 | 7.6
CCCOc1ccccc1C(=O)Nc1ccc(S(=O)(=O)N2CCN(C)CC2)cc1 | 0.6% | 23 | 0% | 6% | -15% | 2 | 0.4
O=C(C(=NNc1ccccc1)c1ccccc1)c1ccccc1 | x | 31 | u | x | -34%[inhibitor] | x | x
O=C1OC(COc2ccc(Br)cc2)CN1c1ccccc1 (centres undefined) | -17% | -8 | 9% | 3% | 4%[15.4 µM] | -6 | -1.0
COc1ccc(NC(=O)c2ccc(S(=O)(=O)N(C)c3ccccc3)cc2)cn1 | -0.4% | -18 | u | 12% | 2% | -26 | 0.4
CCCCC(=O)NC(=S)Nc1ccccc1N1CCCCC1 | -1.2% | -11 | -15% | 3% | -40%[inhibitor] | 0 | 5.1
COC(=O)c1cccc(NC(=O)c2ccc(OC)c(Cl)c2)c1 | x | -4 | -14% | 7% | 16% | -23 | -0.8
CN(Cc1ccccc1)S(=O)(=O)c1ccc2[nH]c(=O)ccc2c1 | -24% | -6 | 2% | 1% | u | -4 | 5.2
Cc1[nH]c(=O)[nH]c(=S)c1C(=O)Nc1ccc(Cl)c(Cl)c1 | 1.0% | -12 | -8% | x | -9% | x | x
COc1cccc(C(=O)NC2CCN(C(=O)N3c4ccccc4Sc4ccccc43)CC2)c1 | -0.8% | -2 | u | -5% | -9% | -6 | -0.4
O=C(O)c1ccc(/C=N/N2CCN(Cc3ccc(Cl)cc3)CC2)cc1 | x | -7 | -17% | -1% | 1% | -1 | -2.9
O=S(=O)(Nc1ccc(F)cc1)c1ccc(NS(=O)(=O)c2cccs2)cc1 | x | -1 | -4% | 10% | -6%[15.4 µM] | 3 | -2.8
CC(C)(C)NC(=O)CCSc1nnc(-c2ccco2)o1 | -3.2% | 6 | 5% | -13% | 23% | 13 | 0.3
Cc1ccc(S(=O)(=O)N2CCCCC2)cc1NC(=O)C1CC(=O)N(Cc2ccco2)C1 (centres undefined) | 1.2% | -16 | 4% | x | -10% | 3 | x
CCC12CN3CC(CC)(CN(C1)C3c1c(O)ccc3ccccc13)C2=O (centres undefined) | -14% | 23 | -2% | -19% | 15% | 9 | 0.9
Cc1nc(NC(=O)C23CC4CC(CC(C4)C2)C3)sc1Cc1ccc2c(c1)OCO2 | -2.2% | 11 | -10% | 9% | 5%[15.4 µM] | 11 | 1.1
COc1ccc(/C=C/C(=O)NC(=S)NNC(=O)c2cccnc2)cc1 | 0.0% | -2 | -2% | 21% | 11% | -5 | 4.8
Oc1cccc(Oc2ncc(C(F)(F)F)cc2Cl)c1 | x | -9 | 3% | 32%[activator] | 1% | 2 | -3.1
Cc1ccccc1-c1nc(C#N)c(N2CCCCC2)o1 | 0.3% | 0 | -31% | -9% | 4%[15.4 µM] | -13 | 3.4
COc1ccccc1C(=O)NNC(=O)c1ccncc1 | -0.1% | 2 | 10% | -21% | -2% | -1 | -3.4
CC1CN(C(=O)CCCN2C(=O)c3ccccc3C2=O)CC(C)O1 (centres undefined) | -0.6% | -8 | 6% | 13% | -1% | -1 | -8.2
Cc1cc(C)cc(-n2c(C)c3c(C)nnc(C)c3c2C)c1 | -13% | 7 | 0% | -18% | -8% | 6 | 12
CCc1nc(Nc2ccc(F)cc2)c2oc3ccccc3c2n1 | -18% | 6 | -11% | -7% | 20% | 5 | 8.3

Filtered by structure, those above with an NH in an aromatic ring
SMILES | ClpP mod | TRPML1 blocker | gsp antagonist | Sfp inh | gsp ag | TRPV1 PAM | Menin MLL FP FL
CC(=O)c1cccc(N=Nc2c(C)[nH]c3ccccc23)c1 | -3.2% | 9 | 5% | -3% | -30%[inhibitor] | 25 | x
O=c1c2ccccc2[nH]c(=S)n1CCN1CCc2ccccc2C1 | x | 5 | -11% | 18% | 16%[15.4 µM] | -12 | 4.2
Cc1[nH]c2ccccc2c1[C@H]1[C@@H](CC#N)C1(C)C | -17% | -12 | -27% | u | 0% | -8 | 0.2
CN(Cc1ccccc1)S(=O)(=O)c1ccc2[nH]c(=O)ccc2c1 | -24% | -6 | 2% | 1% | u | -4 | 5.2
Cc1[nH]c(=O)[nH]c(=S)c1C(=O)Nc1ccc(Cl)c(Cl)c1 | 1.0% | -12 | -8% | x | -9% | x | x

More structures follow:
SMILES | ClpP mod | TRPML1 blocker | gsp antagonist | Sfp inh | gsp ag | TRPV1 PAM | Menin MLL FP FL
Cc1ccc(S(=O)(=O)N2CCCOC2CNC(=O)C(=O)NC2CCCC2)cc1 (centres undefined) | -0.8% | -12 | 9% | 1% | -24% | -2 | x
COCCN1Cc2cccc(C(=O)Nc3c(C)cccc3C)c2C1=O | -3.8% | 6 | -2% | 7% | u | -5 | -0.6
CCC(=O)OCC(=O)[C@@]1(OC(=O)CC)[C@@H](C)C[C@H]2[C@@H]3CCC4=CC(=O)C=C[C@]4(C)[C@@]3(Cl)[C@@H](O)C[C@@]21C | -1.6% | -4 | u | x | x | 2 | x
Cc1cccc(NCC(=O)N/N=C\c2c[nH]c3ccccc23)c1 | x | 4 | -10% | 18% | 4%[15.4 µM] | 19 | -0.4
Cc1ccc(NC(=O)CCC(=O)NNC(=O)c2ccco2)cc1C | 0.8% | -4 | 4% | 21% | u | 22 | 5.9
COc1ccc(S(=O)(=O)Oc2cccc(/C=N/N=C3/NC(=O)C(CC(=O)O)S3)c2)cc1 (centres undefined) | x | 7 | -2% | -18% | -9%[15.4 µM] | -6 | -0.8
C=C1c2cc(C)ccc2NC(=O)N1c1ccccc1 | x | -3 | 11% | -9% | -10%[15.4 µM] | 7 | 3.3
CCOC(=O)N1CCN(CCC(=O)Nc2cccc(C)c2)CC1 | -0.3% | -4 | -3% | 5% | 9%[15.4 µM] | 7 | 0.4
